gsp antag: qHTS for Antagonists of gsp, the Etiologic Mutation Responsible for Fibrous Dysplasia/McCune-Albright Syndrome: qHTS | gsp-mutant cells, cAMP HTRF, 30 min; control for the full effect not named in the record | Potency, µM (top dose mostly 76.9 µM), for the others: at the highest dose activity change, negative = inhibition, usual class: inhibitors | hit rate 0.4% among 340,000; active = falling curve of any shape with a large fitted effect; inconclusive = falling curve, mostly with a smaller effect; inactive = flat or rising curve; cell line not stated here;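 further: intracellular cAMP measured with PDE inhibitor Ro 20-1724 present during compound exposure; potency means the concentration at half of the fitted maximal effect; on the % scale 0 is the no-effect control and ±100 the full control effect; nearly all actives have a fitted effect of over 65% in size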
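Cells in G418 medium, seeded 16-24 h, 37C; buffer exchange to DPBS + 1 mM CaCl2, 0.5 mM MgCl2, 0.05% BSA; cpds in DMSO + […] (300 uM stock), 30 min 37C; HTRF cAMP detection.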
ClpP mod: qHTS Assay for Activators of ClpP; ATP-dependent Clp protease proteolytic subunit (Bacillus subtilis (strain 168)), P80244; purified B. subtilis ClpP, FRET peptide cleavage, 20 min; Potency, µM (top dose mostly 57.5 µM), for inactives: top-dose activity change, negative = active; hit rate 1.9% among 340,000; active = well fitted falling curve with a large enough effect; inconclusive = small, poorly fitted or top-dose-only effect; inactive = no such curve, though single readings can be large or run the other way; further: potency means the concentration at half of the fitted maximal effect; the source files actives as falling curves though it sought activators and does not explain the sign; nearly all actives have a fitted effect of over 65% in size; many hits overshoot -100%
Target sequence (P80244 whole entry, looked up): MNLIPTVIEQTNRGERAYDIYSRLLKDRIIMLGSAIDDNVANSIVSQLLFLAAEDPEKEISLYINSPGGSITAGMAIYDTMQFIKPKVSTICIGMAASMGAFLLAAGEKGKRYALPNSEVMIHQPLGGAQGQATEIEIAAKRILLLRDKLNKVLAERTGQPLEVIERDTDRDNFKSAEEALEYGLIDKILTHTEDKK
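ClpP 10 microg/mL final, pH 8 Tris/KCl buffer with BSA, glycerol, Tween-20; compound pinned in; FRET-FV substrate; RT 20 min; Ex320/Em430; ΔFRET vs ADEP 5.8 microM, DMSO, no enzyme.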
Menin MLL FP FL: qHTS Assay for Inhibitors Targeting the Menin-MLL Interaction in MLL Related Leukemias: Competition With Fluorescein Labeled MLL-derived Peptide; Fluorescence polarization, fluorescein-MLL peptide displacement from menin; FP activity change, % at 61.4 µM; 290,000 tested, under 10 active; inconclusive = falling polarisation curve, or a change in total fluorescence; inactive = total fluorescence flat and polarisation flat or rising; no compound was filed as active; the % refers to the polarisation; negative = inhibition;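 further: % of control where 0% means no effect; inhibitors lower the polarisation; unlabelled MLL peptide was the positive control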
gsp ag: qHTS for Agonist of gsp, the Etiologic Mutation Responsible for Fibrous Dysplasia/McCune-Albright Syndrome: qHTS; gsp mutant cells, cAMP HTRF, 30 min; control for the full effect not named in the record; Potency, µM (highest dose often 76.9 µM), inactives show at the top dose activation (cAMP increase), most hits filed as activators; hit rate 0.13% among 340,000; active = well fitted activation curve with a large enough effect; inconclusive = small, poorly fitted or top-dose-only effect, or another doubt; inactive = no such curve, though single readings can be large or run the other way; cell line not stated here;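 further: phosphodiesterase inhibitor Ro 20-1724 added with compounds to block cAMP breakdown; potency means the concentration at half of the fitted maximal effect; nearly all actives have a fitted effect of over 60% in size; about a fifth of the inactives were tested at one dose only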
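Cells stably selected in G418 were plated at 2000/well, grown 16-24 hr, then given compounds in DMSO with the PDE inhibitor […] (300 uM solution added) for 30 min at 37C; cAMP was read by HTRF.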
TRPV1 PAM: HTS Assay for Compounds that Act as Potentiators of the Vanilloid Receptor 1; hit rate 0.02% among 320,000; potentiation, % at 8.33 µM; TRPV1-expressing cells, Fluo-8 calcium influx, capsaicin EC20 potentiation; host cell line not named in the record; control for the full effect not named in the record; active means potentiation above 80%; inconclusive means 30% to 80%; inactive means below 30%; further: 0% is about no effect
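Cells expressing TRPV1 were dye-loaded with Fluo-8 and read kinetically: 10 s baseline, 3 min after compound (agonist portion), then 2 min after EC20 capsaicin (allosteric enhancer portion). Calcium-bound dye fluorescence at 480/520 nm.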
D2 potentiator: Beta-Arrestin HTS for Positive Allosteric Modulators of the Human D2 Dopamine Receptor: Potentiators. D(2) dopamine receptor (Homo sapiens), P14416. potentiation, % (concentration not given with the values). DiscoveRx D2 beta-arrestin cells, luminescence, 90 min; 100% = 57 uM dopamine signal. AID 624464, 2012. hit rate 0.23% among 360,000; active = potentiation of 50% or more; inconclusive = 30% to 50%; inactive = 30% or less;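 further: compound concentration not given in the record; tested on top of an EC20 dose of dopamine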
Target sequence (P14416 whole entry, looked up): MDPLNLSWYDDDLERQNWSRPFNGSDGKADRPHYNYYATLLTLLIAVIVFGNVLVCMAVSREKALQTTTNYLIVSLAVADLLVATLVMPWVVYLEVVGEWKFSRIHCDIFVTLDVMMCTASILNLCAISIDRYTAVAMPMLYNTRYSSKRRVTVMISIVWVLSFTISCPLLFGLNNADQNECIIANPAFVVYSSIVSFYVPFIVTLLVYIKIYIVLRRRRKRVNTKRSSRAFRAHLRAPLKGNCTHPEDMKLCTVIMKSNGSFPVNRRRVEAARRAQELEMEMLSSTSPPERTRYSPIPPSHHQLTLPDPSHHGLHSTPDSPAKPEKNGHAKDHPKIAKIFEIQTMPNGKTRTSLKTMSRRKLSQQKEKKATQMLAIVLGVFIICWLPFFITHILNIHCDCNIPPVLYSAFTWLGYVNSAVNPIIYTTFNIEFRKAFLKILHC
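D2 cells co-treated with compound plus 50 nM dopamine (EC20) for 90 min at 37 deg C to detect potentiation. Beta-arrestin recruitment was read as enzyme-fragment luminescence after 1 h at ambient temperature. Full response was set by 57 uM dopamine.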
Sfp PPTase inh: qHTS Assay for Inhibitors of Bacillus subtilis Sfp phosphopantetheinyl transferase (PPTase). 4'-phosphopantetheinyl transferase ffp (Bacillus subtilis), Q9F4F7. Potency, µM, without a hit: max response, negative = inhibition, usual class: inhibitors. Biochemical Sfp PPTase activity, qHTS. hit rate 3.5% among 310,000; active means well fitted inhibition curve with a large enough effect; inconclusive means small, poorly fitted or top-dose-only effect, or another doubt; inactive means no such curve, though single readings can be large or run the other way;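 further: the enzyme is Sfp with the accession as filed and its product quenches rhodamine fluorescence; potency means the concentration at half of the fitted maximal effect; 0% = enzyme reaction without inhibitor and -100% = no enzyme wells; top concentration of the series not given in the record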
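Step 1, compound plus 15 nM Sfp-PPTase, 15 min, room temperature. Step 2, add rhodamine-CoA (5 uM) and BHQ-2-YbbR (12.5 uM). Step 3, read 525/598 nm fluorescence at 0 and 30 min.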
* = called active by the depositor; ? = inconclusive; · = not tested or not shown; [ ] = dose if it differs, or a comment.

Start of the listing, in advance (six entries):
SMILES,gsp antag,ClpP mod,Menin MLL FP FL,gsp ag,TRPV1 PAM,D2 potentiator,Sfp PPTase inh
Cc1cc(=O)oc2c(C)c(OCC(=O)N3CCN(c4cccc(Cl)c4)CC3)ccc12,-8%,-26%,-4.0,-95%[inhibitor],-3,-7,4%
COc1ccc(NC(=O)CC2Oc3ccc(C)cc3NC2=O)cc1 (stereo not given),5%,2.4%,1.8,-4%,-5,1,-23%
Cc1cccc(-c2nnc(SCC(=O)N3c4ccccc4CCc4ccccc43)n2C)c1,?,0.1%,6.7,-37%[inhibitor],-1,-19,8%
COc1ccc(OC)c(C(=O)C2COC(=O)C2)c1 (stereo not given),-2%,-3.1%,-1.0,-4%,3,11,1%
Cc1ccc(Cn2c(C3CCCN3c3nc(-c4ccc(F)cc4)cs3)nc3cc(C(=O)NCCCO)ccc32)cc1 (stereo not given),-8%,-12%,·,·,·,-23,·
CC(=O)c1ccccc1NC(=O)COC(=O)Cc1cccc(C(F)(F)F)c1,6%,0.1%,·,3%,-10,14,·

All compounds of this part, repeating the preview:
SMILES,gsp antag,ClpP mod,Menin MLL FP FL,gsp ag,TRPV1 PAM,D2 potentiator,Sfp PPTase inh
Cc1cc(=O)oc2c(C)c(OCC(=O)N3CCN(c4cccc(Cl)c4)CC3)ccc12,-8%,-26%,-4.0,-95%[inhibitor],-3,-7,4%
COc1ccc(NC(=O)CC2Oc3ccc(C)cc3NC2=O)cc1 (stereo not given),5%,2.4%,1.8,-4%,-5,1,-23%
Cc1cccc(-c2nnc(SCC(=O)N3c4ccccc4CCc4ccccc43)n2C)c1,?,0.1%,6.7,-37%[inhibitor],-1,-19,8%
COc1ccc(OC)c(C(=O)C2COC(=O)C2)c1 (stereo not given),-2%,-3.1%,-1.0,-4%,3,11,1%
Cc1ccc(Cn2c(C3CCCN3c3nc(-c4ccc(F)cc4)cs3)nc3cc(C(=O)NCCCO)ccc32)cc1 (stereo not given),-8%,-12%,·,·,·,-23,·
CC(=O)c1ccccc1NC(=O)COC(=O)Cc1cccc(C(F)(F)F)c1,6%,0.1%,·,3%,-10,14,·
Cc1ncccc1C(=O)N1CCCC(C(=O)c2ccc3c4c(cccc24)CC3)C1 (stereo not given),?,·,2.8,4%[15.4 µM],6,-2,-10%
COC(=O)c1c(C)[nH]c(C(=O)CSc2nnnn2-c2ccccc2)c1C,7%,-1.5%,6.5,-2%,-7,-9,3%
CCn1nc(NS(=O)(=O)c2ccccc2)c2cc3ccc(C)cc3nc21,6%,1.8%,·,1%,4,-4,22%
Cc1ccc(C(=O)NC(C)c2ccccc2)cc1Br (stereo not given),-9%,1.1%,-0.3,-5%[15.4 µM],16,-27,0%
O=C(Nc1nnc(N2CCCCCC2)s1)c1cc(-c2ccc(Br)cc2)on1,-9%,-1.4%,2.2,-3%,3,-4,-7%
COc1cccc(NC(=O)c2cccc(OC)c2OC)c1,-1%,0.0%,-1.3,0%,-7,14,-8%
Cc1ccc(CNC(=O)c2sc3ccc(S(=O)(=O)N4CCCCC4)cc3c2N)cc1,·,·,-1.1,·,10,·,-2%
Cc1ccc(N2OC3C(=O)NC(=O)C3C2c2ccco2)cc1 (stereo not given),-1%,1.5%,3.8,14%,-1,5,4%
Cc1ccc(C)c(S(=O)(=O)Nc2ccc3[nH]c(=O)[nH]c3c2)c1,10%,·,0.6,3%,2,0,-3%
CCOc1ccc(-c2nnc(Nc3ccc(OC)c(C(=O)N4CCCCC4)c3)c3ccccc23)cc1,35µM*,-3.1%,8.2,-70%[inhibitor],15,-2,-5%
Cc1c(NC(=O)c2cc(=O)[nH]c(=O)[nH]2)c(=O)n(-c2ccccc2)n1C,-4%,-1.3%,4.8,0%,-2,-2,?
CCCCn1c2ccccc2c2nnc(SCCN3CCCCC3)nc21,6%,-1.4%,-0.9,22%[15.4 µM],-10,-11,?
CCc1ccc(Nc2n[n+](-c3ccccc3)c(-c3ccc(OCc4ccccc4)cc3)s2)cc1,-14%,-4.9%,3.2,27%,-4,-19,-7%
CCN(C(=O)COC(=O)c1cccc(S(=O)(=O)NCc2ccccc2)c1)c1ccccc1,-5%,-1.0%,·,-37%[inhibitor],-18,9,·
Cc1ccc(C(=O)C2CCN(C(=S)NCC3CCCO3)CC2)cc1 (stereo not given),-8%,-1.0%,-0.4,0%,0,-13,12%
COc1ccc(CCNC(=O)CSc2nc(O)cc(=O)[nH]2)cc1OC,9%,-0.5%,4.3,-45%[inhibitor],-20,-3,12%
CC(C)(C)n1ncc2c(=O)n(Cc3c(F)cccc3Cl)cnc21,6%,0.9%,-1.0,6%,-21,4,0%
O=C(NCC(c1ccc(F)cc1)N1CCOCC1)c1cccc(Br)c1 (stereo not given),-8%,-3.2%,-1.5,-9%,0,-21,10%
COC(=O)COc1ccc(/C=C2/SC(=O)N(CC(=O)N3CCCC3)C2=O)cc1Br,-9%,-1.4%,-1.4,10%,-9,11,13%

Quoted at random: 2 entries already listed
SMILES,gsp antag,ClpP mod,Menin MLL FP FL,gsp ag,TRPV1 PAM,D2 potentiator,Sfp PPTase inh
Cc1ccc(Cn2c(C3CCCN3c3nc(-c4ccc(F)cc4)cs3)nc3cc(C(=O)NCCCO)ccc32)cc1 (stereo not given),-8%,-12%,·,·,·,-23,·
Cc1cc(=O)oc2c(C)c(OCC(=O)N3CCN(c4cccc(Cl)c4)CC3)ccc12,-8%,-26%,-4.0,-95%[inhibitor],-3,-7,4%

Continued:
Second line of a record: gsp antag, ClpP mod, Menin MLL FP FL, gsp ag, TRPV1 PAM, D2 potentiator, Sfp PPTase inh
Cc1cc(C(=O)COC(=O)CC2Sc3ccccc3NC2=O)c(C)n1-c1ccc2c(c1)OCO2 (stereo not given)
  -11%, -3.2%, 4.9, -2%, -2, -9, -17%
Cc1ccc(S(=O)(=O)N2CCCC2CNC(=O)C(=O)Nc2ccccc2)cc1 (stereo not given)
  -22%, ?, ·, -1%[15.4 µM], -17, -9, ·
Cc1cc(C(F)(F)F)c2c(n1)sc1c(O)cc(=O)[nH]c12
  6%, -1.6%, 0.5, 3%, -2, -8, 10%
O=S(=O)(c1ccc(Br)cc1)N1CCN=C1SCc1cccc(F)c1
  -3%, -0.1%, ·, 5%, -11, 0, 14%
N#Cc1cc2c(=O)n3ccccc3nc2n(-c2ccc(Cl)cc2)c1=O
  ?, 5.2%, -8.6, -126%[inhibitor], 4, -5, 17%
CCOCc1nnc(NC(=O)C2c3ccccc3Oc3ccccc32)s1
  6%, ·, -0.2, 14%[15.4 µM], 20, 2, ?
CCc1ccc(CN2CCCC(C(=O)Nc3ccccc3-c3ccc(OC)cc3)C2)o1 (stereo not given)
  -4%, -0.6%, ·, -29%, -17, -27, -4%
O=c1[nH]c(C(Cl)(Cl)Cl)nc2ccc3ccccc3c12
  -15%, ·, 2.1, -8%, 4, -4, 22%
CC(=O)c1cccc(NC(=S)N2CCCC2)c1
  10%, 0.3%, 3.7, -1%, 3, 4, 8%
Cc1cccc(C(=O)NC(NCCc2ccccc2)C(Cl)(Cl)Cl)c1 (stereo not given)
  -27%, -4.5%, 1.5, 18%, 17, -19, 8%
CN(C)c1cccc(C(=O)Nc2ccc(N3CCOCC3)cc2)c1
  -25%, -1.4%, 3.3, ?, -9, -8, 10%
NN/C(=C\[N+](=O)[O-])Nc1ccc(Cl)cc1
  8%, ·, -0.8, 13%, 9, 0, -7%
CCOC(=O)C1(Cc2ccccc2C)CCCN(C(=O)CN2CCCCC2=O)C1 (stereo not given)
  7%, ·, -4.1, ?, 11, -2, 17%
CC(=O)OC(C)[C@H]1CC[C@H]2[C@@H]3CC[C@H]4C[C@@H](OC(C)=O)CC[C@]4(C)C3=CC[C@]12C (stereo not given in full)
  -8%, -2.7%, ·, ·, ?, 1, ·
COc1ccc(OCC(=O)Nc2cccc(-c3nc4ccccc4o3)c2)cc1
  13%, ?, 7.9, 3%, 4, -2, ?
CCC(C)Sc1ccc([C@H]2N[C@@](CC(C)C)(C(=O)OC)[C@H]3C(=O)N(CC)C(=O)[C@@H]23)cc1 (stereo not given in full)
  -14%, 1.0%, ·, 24%, 2, -10, ·
Cc1cc(=O)oc2cc(OCC(=O)NCCc3c[nH]c4ccc(F)cc34)ccc12
  -5%, 1.3%, -6.1, ?, 12, -6, -18%
O=C(N/C(=C/c1ccco1)C(=O)N1CCc2ccccc21)c1ccco1
  -19%, -1.0%, ?, 6%[15.4 µM], 7, -4, 40µM*
COc1ccccc1C(C)NS(=O)(=O)c1cccs1 (stereo not given)
  ·, ·, -0.5, ·, 20, ·, 24%
Cn1c(=O)c2sccc2n2c(CCCC(=O)NCc3cccnc3)nnc12
  20%, -29%, -0.4, ?, 5, -5, 9%
O=C(Nc1ccccc1-c1ccccc1)C12CC3CC(CC(C3)C1)C2
  3%, -1.6%, -1.4, 15%, -12, -6, -2%
Cc1c(Cc2ccc3c(c2)OCO3)sc(NC(=O)c2ccc3ccccc3c2)c1C(N)=O
  0%, -13%, 1.5, -4%, -4, -9, 13µM*
COc1ccc(COC(=O)C2CC(=O)N(Cc3ccc(C)cc3)C2)cc1 (stereo not given)
  -1%, -24%, ·, -10%, -27, -12, 8%
COc1cc(C(=O)Nc2ccn(C)n2)ccc1OC(F)F
  16%, 1.7%, ·, 1%, -25, -3, ·
CCOC(=O)CSc1ncnc2c1cnn2-c1ccc(Cl)cc1
  20%, -6.9%, 1.8, 0%, 7, -14, -9%

Bioassay records: PubChem, National Center for Advancing Translational Sciences (NCATS)
